VACV Venus inh: inhibitors of vaccinia virus (Venus reporter); Vaccinia virus Venus reporter expression, fluorescence; hit rate 0.46% among 330,000; Potency, µM (highest dose often 36.5 µM), inactives show at the top dose activity change, negative = inhibition, actives largely listed as inhibitors; AID 720580; active means well fitted inhibition curve with a large enough effect; inconclusive means small, poorly fitted or top-dose-only effect; inactive means no such curve, though single readings can be large or run the other way; tested in A549 cells; further: nearly all actives have a fitted effect of over 30% in size; inactives centre near -10
VACV mCherry inh: vaccinia inhibition (mCherry reporter); Potency, µM (titrated, usually from 36.5 µM), without a hit: at the highest dose activity change, negative = inhibition, most hits filed as inhibitors; Vaccinia virus mCherry reporter infection, fluorescence; about a quarter of the inactives have no number; hit rate 0.63% among 310,000; active = well fitted inhibition curve with a large enough effect; inconclusive = small, poorly fitted or top-dose-only effect; inactive = no such curve, though single readings can be large or run the other way; tested in A549 cells; further: nearly all actives have a fitted effect of over 35% in size; inactives centre near -10
Starred values were filed as active, the others as inactive; i = inactive; ? = inconclusive; . = not tested or not shown; & = joins results of further samples; [ ] = remark or other dose. On the % scale 0 is the no-effect control and ±100 the full control effect; potency means the concentration at half of the fitted maximal effect. An unsorted share of the library. Share with any hit: about 0.87%.

Compound,VACV mCherry inh,VACV Venus inh
Cc1ccc(NC(=O)Cn2c(=O)n(Cc3ccc4c(c3)OCO4)c(=O)c3ccccc32)c(C)c1,-15%,-6%
COc1cc(=O)n2c(c1C(=O)N(C)Cc1nonc1C)CCN(C(=O)c1cc(C)ccc1C)CC2,-3%,-1%
CC(=O)Nc1cccc(-c2csc(C(C)(O)c3ccccc3)n2)c1 (stereo not given),-21%,0%
CCCCNC(=O)c1sc2nc(C)cc(COC)c2c1-n1cccc1,-2%,-13%
COc1ccc(NC(C)=O)cc1NC(C)c1nc2sc(C)c(C)c2c(=O)[nH]1 (stereo not given),5%,-5%
CCOC(=O)C1(C/C(C)=N/NC(N)=O)CC(C)(C)OC1=O (stereo not given),-9%,0%
Cc1nn(C)c(C(=O)NC(=S)Nc2ccc([N+](=O)[O-])cc2)c1Cl,-30%,-22%
COC(=O)c1cc(C(=O)OC)n(Cc2ccc(F)cc2)n1,i,-3%
OC(CN1CCCCC1)Cn1c2ccc(Cl)cc2c2cc(Cl)ccc21 (stereo not given),?,?
Cc1c(C(=O)N2CCN(CCc3ccccc3)CC2)oc2ccccc12,-19%,-8%
COc1ccc(N(CC(=O)Nc2ccc(C(N)=O)cc2)S(=O)(=O)c2ccc(C)c([N+](=O)[O-])c2)cc1,-24%,-25%
COC(=O)c1ccc(/C=N/NC(=O)CC(=O)NCc2cccnc2)cc1,i,-10%
CC(=O)Nc1cccc(NC(=O)COC(=O)CO/N=C(\C)c2ccc3c(c2)OCO3)c1,-21%,-15%
Cc1ccc(C)n1-n1cnc2sc3c(c2c1=O)CCC3,-3%,-9%
C[C@H]1CN([C@@H](C)CO)C(=O)c2cc(Br)cnc2O[C@@H]1CN(C)C(=O)CN(C)C,i,-6%
COc1ccc(NC(=O)Cn2c(=O)n(Cc3ccco3)c(=O)c3sc4ccccc4c32)cc1OC,-19%,-12%
CCOC(=O)C[n+]1ccc2c([nH]c3ccccc32)c1C,-10%,-3%
CCC(C)c1ccccc1NC(=O)COc1ccc(-c2nnco2)cc1 (stereo not given),-6%,-17%
COc1ccccc1-c1ccc(/C=C2/C=C(C)OC2=O)o1,-2%,14%
COCCN1C[C@@H](CO)O[C@@H](n2cnc3c(NCCCO)ncnc32)C1,-13%,-19%
Cc1ccccc1NC(=O)c1ccc2c(c1)OCCO2,.,-16%
CCOc1ccc(N(CC(=O)N/N=C/c2ccc(OC(C)C)cc2)S(C)(=O)=O)cc1,i,-11%
O=C1CC(c2ccc(O)cc2)Oc2cc(O)cc(O)c21 (stereo not given),-12%,-20%&-2%
Cc1ccc(N2C(=O)C3C(C(=O)c4ccccc4)=NN(c4ccccc4)C3C2=O)cc1 (stereo not given),-5%,-11%
CN(C(=O)c1ccco1)c1nc2c(s1)CCCC2,-11%,-9%

Two entries from above, with values under each structure:
Order of results – VACV mCherry inh, VACV Venus inh
COc1ccccc1-c1ccc(/C=C2/C=C(C)OC2=O)o1
 : -2%, 14%
COC(=O)c1ccc(/C=N/NC(=O)CC(=O)NCc2cccnc2)cc1
 : i, -10%

The listing continues.
Compound,VACV mCherry inh,VACV Venus inh
CCOC(=O)Nc1c(C(=O)OC)[nH]c2cccc(OC)c12,.,-7%
Cc1ccccc1OCC(=O)Nc1ccc(-c2nc3ncccc3o2)cc1,-9%,-4%
CCc1ccc(CNC(=O)c2ccc3nc(SCc4ccc(F)cc4)n(C)c3c2)cc1,-23%,-11%
Cc1c(CC(=O)NCc2ccc(F)cc2)c(=O)oc2cc(O)c(Cl)cc12,-8%[7.34 µM],-5%[7.34 µM]
Cc1ccc(C)c(NC(=O)c2nnn(CC(=O)Nc3cccc(C)c3C)c2N)c1,i,-10%
Cc1nc(SCC(=O)N(CC(C)C)C2CCS(=O)(=O)C2)c(C#N)c(C)c1C (stereo not given),-12%,-22%
CCCC(=O)Nc1nc(-c2ccccc2)ns1,-3%,-15%
COc1ccc(NC(=O)C2CCCN(S(=O)(=O)c3c(C)[nH]c(=O)[nH]c3=O)C2)cc1Cl (stereo not given),-4%&-7%,-15%&-2%
Cc1ccc2cc(/C=N/NC(=O)c3ccccc3O)c(Cl)nc2c1,-13%,-5%
CN(C)C(=O)c1cc(C(=O)c2ccccc2Cl)c[nH]1,-6%,-13%
COc1cc2c(NC3CCN(C)CC3)nc(N3CCCN(C)CC3)nc2cc1OCCCCN,?,?
CCN(CC)c1ccc(NC(=O)CSc2n[nH]c(-c3ccco3)n2)cc1,-13%,-6%
CSc1ccccc1Nc1ncnc(N)n1,-6%,-1%
COc1ccccc1NC(=O)c1cnc(SCC(=O)NCC2CCCO2)n(C)c1=O (stereo not given),-11%,-10%
O=C(NCc1ccccc1)c1onc(CSc2ccncc2)c1C(=O)NCc1ccccc1,-8%,-27%
Cc1c(Cl)cccc1NC(=O)CSc1nc(=O)n(Cc2ccco2)c2c1CCC2,?,?
O=C(CC1C(=O)NCCN1Cc1ccc(-c2ccccc2)cc1)NCc1ccccc1 (stereo not given),-11%,-15%
CC(C)(C)c1nnc(N/N=C/c2ccc(Br)cc2)n(N)c1=O,0%,-15%
c1cc(-c2nnc3n2CCCCC3)ccn1,i,-12%
CCCOc1cccc(C2/C(=C(/O)c3ccc(F)cc3)C(=O)C(=O)N2CCN(C)C)c1 (stereo not given),-14%,-6%
CCS(=O)(=O)CCSc1nc2ccccc2s1,.,-12%
O=C(c1cc(-c2ccc(F)cc2)nc2ccccc12)N1CCC1,-1%,-4%
CCOC(=O)CC1C(=O)NCCN1C(=S)NC(=O)c1ccccc1OC (stereo not given),i,-11%
CCOC(=O)[C@@H]1[C@H]2COc3ccccc3[C@@H]2N2C(=O)N(c3cccc(F)c3)C(=O)[C@]12C,-14%,-19%
COC(=O)[C@@H]1C[C@@H]2CC[C@@H](O)C[C@@H]2N1Cc1ccccc1OS(=O)(=O)c1ccc(C)cc1,-2%,-4%
O=C(NCc1ccc(Cl)cc1)c1cc2ccccc2o1,-21%,-13%
CCC(=O)Oc1cccc(C(=O)Nc2ccc(-c3nnc(-c4ccco4)o3)cc2)c1,?,?
Cc1ccc(OCC(=O)NNC(=O)Cc2ccc(S(=O)(=O)N3CCOCC3)s2)cc1,-11%,-7%
CC(C)CNC(=O)CSc1nnc(-c2ccccn2)n1Cc1ccccc1,i,-10%
CC(C)Nc1ncnc2c1ncn2[C@H]1CN(Cc2ccccc2)C[C@@H](CO)O1,27%,5%
Cc1cccc(OCCSc2nc3ccccc3n2CC(=O)N2CCOCC2)c1C,-11%,-11%
COCCCNC(=O)C[C@@H]1C[C@@]2(C(=O)OC)CCCCC=C2N(CCC2=CCCCC2)C1=O,-1%,4%
COc1ccc(Cc2c(-c3ccc(C)cc3)nc3cc(C)c(Br)c(C)n23)c(C)c1,5%,-5%
COc1ccccc1N1CCN(S(=O)(=O)CCNC(=O)CC2CCCC2)CC1,-8%,-24%
Cc1cc(S(=O)(=O)N2CCN=C2c2ccccc2)c(Cl)cc1Cl,i,-9%
C=CCn1c(SC(C)C(N)=O)nc2sc(CC)cc2c1=O (stereo not given),-5%,-9%
Oc1cccc(/C=N/Nc2ccc(Cl)nn2)c1O,?,?
Cc1csc(SCC(=O)Nc2ccccc2C)n1,-11%,-7%
C=CCc1ccccc1OCC(O)CNC(C)C (stereo not given),0%,-11%&7%
S=C(NCCN1CCOCC1)N/N=C/c1ccccc1,-15%,-8%
O=C(COc1ncnc2ccccc12)Nc1ccc(Cl)c([N+](=O)[O-])c1,-13%,4%
Cc1cc(NC(=O)Nc2cc(C)nn2-c2ccccc2)n(-c2ccccc2)n1,-15%,-8%
CCOC(=O)C1(CCOc2ccccc2)CCN(Cc2ccc(OC)c(COC)c2)CC1,-6%,-26%
O=C(COc1ccc([N+](=O)[O-])cc1Cl)Nc1ccc2[nH]c(=O)[nH]c2c1,-4%,3%
Cc1nn(C)cc1CN(C)C(=O)c1cc(-c2ccccc2)nc2ccc(Br)cc12,-13%&8%,-16%&-1%
O=[N+]([O-])c1ccccc1CN1CCN(Cc2c[nH]c3ccccc23)CC1,?,?
O=C(NNC(=S)Nc1ccc(F)cc1)C1[C@H]2CCCC[C@@H]12 (stereo not given in full),-3%,10%
Cc1ccc(-n2nc3c(=O)n(CC(=O)NCc4ccccc4Cl)nc(C)c3c2C)cc1,i,-3%
C[C@H](CO)N1C[C@H](C)[C@@H](CN(C)S(C)(=O)=O)Oc2ccc(NC(=O)Cn3cnnn3)cc2C1=O,-10%,-13%
C=C(C)c1cccc(C(C)(C)NC(=O)N2CCCC(C)C2)c1 (stereo not given),.,-29%

(list continues)
Compound,VACV mCherry inh,VACV Venus inh
CC1=NN(c2ccc(Cl)cc2)C(=O)/C1=C\c1cccn1-c1ccc(S(N)(=O)=O)cc1,-18%,-29%
Cc1cccc(OCc2nnc(SCC(=O)Nc3cccc(C(=O)N4CCOCC4)c3)n2C)c1C,-2%,-15%
C#CCOCCOCCOCCNc1nc(N2CCN(C(=O)[C@H](CCCCN)n3cc(CN)nn3)CC2)nc(N2CCN(C(=O)[C@H](CC(N)=O)n3cc(C(N)[C@H](C)CC)nn3)CC2)n1 (stereo not given in full),-16%,-3%
COc1ccc(C(=O)Nc2nc(C)cc(C)n2)cc1,i,6%
O=C(CSc1ccc2nnc(-c3ccccn3)n2n1)NCc1ccco1,-12%,-10%
Cc1ccc(S(=O)(=O)N2CCOCC2)cc1C(=O)OCc1nnc(-c2ccccc2)o1,3%,4%
CCN(Cc1ccccc1)C(=O)COc1ccccc1,-20%,-18%
O=C(/C=C/C=C/c1ccccc1)CC1(O)C(=O)N(CCc2ccccc2)c2ccccc21 (stereo not given),-22%,-9%
CCC(c1nnnn1Cc1ccco1)N(CCc1ccccc1)Cc1cc2cc(C)ccc2[nH]c1=O (stereo not given),.,?
O=C(N/N=C/c1ccncc1)c1ccccc1[N+](=O)[O-],-2%,-10%
CCOC(=O)c1c(NC(=O)C(C)Sc2cn(CCNC(=O)c3ccc(OC)cc3)c3ccccc23)sc2c1CCC2 (stereo not given),-9%,-12%
CCOC(=O)c1ccc(N2C(=O)c3[nH]nc(-c4ccc(OC)cc4)c3C2c2ccccc2Cl)cc1 (stereo not given),?,-22%
OC1(C2(O)CC(c3ccccc3)ON2)CCCCC1 (stereo not given),.,-18%
Cc1ccc(-c2n[nH]c(=O)c3ccccc23)cc1S(=O)(=O)NCC1CCCO1 (stereo not given),-3%,-11%
CCC(SC1=N/C(=C/c2ccccc2)C(=O)N1c1ccccc1)C(=O)Nc1cc(C)on1 (stereo not given),-30%,-29%
Cc1ccc(OCCNC(=O)[C@H]2O[C@@H](n3cnc4c(N)ncnc43)[C@H](O)[C@@H]2O)cc1C,9%,-9%
COc1cc2c(cc1OC)C(c1ccc(C(F)(F)F)cc1)CC(=O)N2 (stereo not given),i,-21%
CC1=C(C(=O)Nc2ccc(C)cc2C)C(c2sccc2C)n2ncnc2N1 (stereo not given),1%,-1%
CCOCCc1nnc(NC(=O)C(=O)c2cc(C)n(-c3cccc(C)c3)c2C)s1,-8%,-3%
O=C1C=C(c2ccc(Cl)nc2)C[C@@H](c2ccc3c(c2)OCO3)C1,-8%,?
CCOC(=O)CN1C(=O)N[C@H](c2ccc(Br)cc2)C(C(C)=O)=C1C,-25%,-25%
CCOC(=O)N1CCN(C(=O)C2CCC(=O)N(CCCc3ccccc3)C2)CC1 (stereo not given),i,-6%
CN1OC[C@@H]2CN(C(=O)c3cccc4ccccc34)[C@H](c3ccc(N4CCCCC4)cc3)C[C@@H]21,i,-14%
COC(=O)c1ccccc1-c1ccc(/C=C2\C(=O)N(c3ccccc3)N=C2c2ccccc2)o1,i,-2%
CCc1ccccc1NC(=O)COc1ccc2oc(-c3ccc(OC)cc3)cc(=O)c2c1,-14%,-5%

Quoted from above (four entries):
Compound,VACV mCherry inh,VACV Venus inh
CCOC(=O)N1CCN(C(=O)C2CCC(=O)N(CCCc3ccccc3)C2)CC1 (stereo not given),i,-6%
CN1OC[C@@H]2CN(C(=O)c3cccc4ccccc34)[C@H](c3ccc(N4CCCCC4)cc3)C[C@@H]21,i,-14%
COC(=O)c1ccccc1-c1ccc(/C=C2\C(=O)N(c3ccccc3)N=C2c2ccccc2)o1,i,-2%
CCc1ccccc1NC(=O)COc1ccc2oc(-c3ccc(OC)cc3)cc(=O)c2c1,-14%,-5%

(cont.)
Compound,VACV mCherry inh,VACV Venus inh
CC(C)c1ccc(C(CC(=O)O)NC(=O)c2cccs2)cc1 (stereo not given),-15%,-6%
O=C(CN1CCCCCC1)Nc1ccccc1Oc1ccccc1,i,0%
COc1ccc(C(=O)NCc2nnc(SCC(=O)c3ccccc3)n2C)cc1OC,-2%,-17%
CCn1c(SCC(=O)N(C)C)nc2cc(S(=O)(=O)N3CCOCC3)ccc21,1%,3%
O=c1oc2ccccc2cc1O,-21%,-13%
O=C(c1noc2c1CCCC2)N1CCOCC1,-11%,-9%
Cc1ccc2c(c1)C(c1ccccc1)N(C(=O)c1ccc3c(c1)OCO3)CC(=O)N2 (stereo not given),?,-5%
COc1ccc(S(=O)(=O)N2CCCOC2CNC(=O)C(=O)NCCCn2ccnc2)cc1OC (stereo not given),i,7%

Compound activity (PubChem)
